# Vaccinia Venus – qHTS for Stage-Specific Inhibitors of Vaccinia Orthopoxvirus: Venus Reporter Primary qHTS. Potency, µM (top dose mostly 36.5 µM), for the others: at the top dose activity change, negative = inhibition, hits mostly inhibitors. actives 0.46% (n = 330,000). Vaccinia virus Venus reporter expression, fluorescence; active means well fitted inhibition curve with a large enough effect; inconclusive means small, poorly fitted or top-dose-only effect; inactive means no such curve, though single readings can be large or run the other way; tested in A549 cells; further: nearly all actives have a fitted effect of over 30% in size; inactives centre near -10
# VACV mCherry inh – qHTS for Stage-Specific Inhibitors of Vaccinia Orthopoxvirus: mCherry Reporter Primary qHTS; Vaccinia virus mCherry reporter infection, fluorescence; about a quarter of the inactives have no number; Potency, µM (doses to about 36.5 µM), without a hit: at the top dose activity change, negative = inhibition, most hits filed as inhibitors; actives 0.63% (n = 310,000); active = well fitted inhibition curve with a large enough effect; inconclusive = small, poorly fitted or top-dose-only effect; inactive = no such curve, though single readings can be large or run the other way; tested in A549 cells; further: nearly all actives have a fitted effect of over 35% in size; inactives centre near -10
# Starred values were filed as active, the others as inactive; i = inactive; ? = inconclusive; / = no result given; & = joins results of further samples; [ ] = remark or other dose. On the % scale 0 is the no-effect control and ±100 the full control effect; potency means the concentration at half of the fitted maximal effect. Rows were taken by chance, and some 0.82% of all compounds hit somewhere here.
SMILES	Vaccinia Venus	VACV mCherry inh
COc1ccc(-c2nc3ccccc3n2CCC(C)C)cc1OC	-6%	/
COc1ccc(NC(=O)CNC(=O)CC23CC4CC(CC(C4)C2)C3)c(OC)c1	-15%	-16%
O=C(Nc1nc(-c2ccccc2)cs1)c1ccc2c(c1)S(=O)(=O)c1ccccc1C2=O	3%	?
CCCCn1c(N)c(N(CC(C)C)C(=O)CSCC(=O)Nc2ccc(OC)cc2)c(=O)[nH]c1=O	-19%	-19%
CCOc1ccccc1N1CCN(C(=O)c2cc3c(s2)CCC3)CC1	-8%	/
O=C(OCCN1C(=O)c2ccccc2C1=O)c1cc(=O)[nH]c2ccccc12	-27%	/
CCc1ccccc1NS(=O)(=O)c1ccc2[nH]cc(C(=O)NC3CCCC3)c(=O)c2c1	?	?
O=C(CNc1ccccc1)Nc1cccc2ccccc12	-13%	i
COC(=O)CCC(=O)N1CCCC(C(=O)c2ccc(Cl)cc2C)C1 (configuration not stated)	-3%	i
CCOC(=O)c1[nH]cnc1C(=O)N1CCC(C)CC1	-13%	i
COc1nc(C)nc2c1sc1nc3c(cc12)COC(C)(C)C3	-13%	i
Cc1cccc(C)c1-n1nnnc1C1c2ccccc2C(=O)N1CCC(C)C (configuration not stated)	9%	3%
CCOC(=O)CN1CCS(=O)(=O)CC1	-6%	i
CCn1cc(C(=O)N[C@H](C(=O)NCCN2CCOCC2)C(C)C)c(=O)c2cc3c(cc21)OCO3	-12%	-14%
O=C(Nc1ccccc1)N(Cc1ccccc1)CC(O)C(F)(F)F (configuration not stated)	-14%	/
COc1ccc(-c2ccc(SC)nn2)cc1	-5%	-6%
O=C(NNC(=O)c1cccc2ccccc12)c1ccc(Cl)cc1Cl	-16%	-4%
O=C(NCCCN1CCOCC1)c1cccnc1	-5%	-10%
O=C(NCc1ccccc1)c1cc(C2CCCN(C(=O)C3CCCCC3)C2)on1 (configuration not stated)	-3%	2%
COc1ccc(/C=N\NC(=O)CC(=O)Nc2cccc(Cl)c2)cc1OC	-8%	-4%
Cc1ccc(S(=O)(=O)N2CC(C(=O)O)=CC[C@H]2c2ccc3c(c2)OCO3)cc1	-13%	i
CCN1CCN(c2ccc(S(=O)(=O)N3CCCCC3)cc2NC(=O)Cc2ccccc2)CC1	-1%	-15%
Cc1ccc(OCC(=O)NNC(=O)C(=O)N2CCCC2)c(C)c1	-8%	-10%
Cc1ccc(-c2nnc(-n3ncc(C#N)c3N)c3ccccc23)cc1C	-15%	-8%
CCn1nc(NC(=O)c2ccccn2)c2cc3cc(C)ccc3nc21	-19%	-11%
CCCc1nnc2c(N(C)S(=O)(=O)c3ccccc3)nc3ccccc3n12	-13%	i
Cc1cccc(CNc2ncnc3ccc(-c4ccccc4C#N)cc23)c1	20%	29%
O=C(NCc1ccco1)C1Cc2c(-c3ccccc3Oc3ccccc3)ccnc2O1 (configuration not stated)	-18%	-25%
Cc1cccc2cc(COC(=O)c3ccccc3)c(=O)[nH]c12	-11%	/
Cc1cc(C)c2nc(SCC(=O)NCCC3=CCCCC3)cc(C)c2c1	-4%	-4%
CC(Sc1nc2ccccc2c(=O)n1Cc1ccco1)C(=O)c1ccccc1 (configuration not stated)	-5%	-14%
CC(=O)N(O)CCCCCNC(=O)CCC(=O)N(O)CCCCCNC(=O)CCC(=O)N(O)CCCCCN	-20%&-17%&-23%	?
CCc1ccc(NC(=O)c2ccc3c(O)c(S(=O)(=O)c4ccccc4)c(=O)[nH]c3c2)cc1	-10%	-6%
C/C(N)=C(/C#N)C(=O)CSc1nc2ccccc2c(=O)n1CCCO	-15%	i
COC(=O)c1cc(C#N)c(N2CCOCC2)nc1C	-6%	-9%
COc1ccc(C(C)=O)cc1CSc1nnc(Nc2ccc(C)cc2C)s1	8%	?
O=C(CCCSc1nc2ccccc2[nH]1)NC1=NCCS1	-14%	i
C/C(=N\NC(=S)Nc1ccccc1C)c1ccc(O)cc1	-16%	-10%
Nc1ccc(/C=C/c2nc3ccccc3s2)cc1	28%	-10%
O=C(NCCCN1CCCC1=O)c1sc2ccccc2c1Cl	-20%	-11%
COc1cc(-c2nnc3sc(C4CCCCC4)nn23)cc(OC)c1OC	5.6µM*	?
CCOC(=O)/C=C/C(=O)OCC(=O)Nc1ccc(Cl)cc1Cl	-9%	-1%
Cc1onc(-c2ccccc2)c1C(=O)N1CCN(S(=O)(=O)c2ccccc2Br)CC1	3%	-2%
Cc1nc(SCC(=O)NC2CCCC2)c2oc3ccccc3c2n1	-15%	-6%
CC(C)c1csc(CN2CCC(CCC(=O)NCC3CCCO3)CC2)n1 (configuration not stated)	-15%	-2%
O=C(O)c1ccc(S(=O)(=O)NC2CCCCC2)cc1	-8%	-11%
CCN(CC)C(=O)C1=C(C)N(Cc2ccc(C(C)(C)C)cc2)C(=O)C(CC(=O)NCc2cccc3ccccc23)C1 (configuration not stated)	?	?
Cc1nc(S/C(=C/c2ccc(-c3cccc(Cl)c3)o2)C(=O)O)n[nH]1	-3%	/
COc1ccc(S(=O)(=O)NCc2cccnc2)cc1C	-11%	i
c1cc(C(c2nnnn2C2CCCCC2)N2CCN3CCCC3C2)ccn1 (configuration not stated)	-4%	-23%

# Compound profiles (already shown):
# Listed for Cc1nc(S/C(=C/c2ccc(-c3cccc(Cl)c3)o2)C(=O)O)n[nH]1 = Vaccinia Venus: -3%; VACV mCherry inh: /
# Listed for Cc1onc(-c2ccccc2)c1C(=O)N1CCN(S(=O)(=O)c2ccccc2Br)CC1 = Vaccinia Venus: 3%; VACV mCherry inh: -2%
# Listed for COc1ccc(S(=O)(=O)NCc2cccnc2)cc1C = Vaccinia Venus: -11%; VACV mCherry inh: i

# (continued)
SMILES	Vaccinia Venus	VACV mCherry inh
COc1ccccc1CN1CCNC(=O)C1=O	6%	2%
CCOc1ccc(CCNC(=O)COC(=O)c2ccc3c(c2)OCCO3)cc1OCC	-4%	-12%
Cc1csc(=O)n1CC(=O)Nc1ccc(S(C)(=O)=O)cc1	-11%	i
CNCc1cc2ccc(C)cc2[nH]c1=O	-7%	/
CC(C)N1CCC1(C)C(=O)Nc1cccc(C#N)c1 (configuration not stated)	12%	-7%
COc1cccc2cc(C(C)=O)oc12	-12%	-3%
Cc1ccc(S(=O)(=O)N2[C@H](CC(=O)OCc3ccccc3)OC[C@@H]2C)cc1	-4%	-17%
COc1ccc(NC(=O)c2ccc3c(c2)C(=O)N(Cc2cccnc2)C3=O)c(OC)c1	-4%	-5%
COc1ccc(C(=O)C2CCCN(C(=O)c3n[nH]c4c3CCCC4)C2)cc1OC (configuration not stated)	-10%	i
Cc1ccc(-c2nc(NCc3ccco3)n(S(C)(=O)=O)n2)cc1	-12%	-17%
CCCCn1c(SCC(=O)c2cc(OC)ccc2OC)nc2cc(S(N)(=O)=O)ccc21	-22%	-3%
CCc1ccccc1-n1nnc(-c2nc(-c3ccccc3F)no2)c1C	-16%	-11%
CCOc1ccc(-c2nnc(-c3snc(-c4ccc(F)cc4)c3N=CN(C)C)o2)cc1	8%	-7%
c1ccc(-c2ccn3nnnc3n2)cc1	-2%	-13%
N#CC12CCCCC1CC1CCCCC1(C#N)N2Cc1cccnc1 (configuration not stated)	?	/
COc1cc(=O)n(C)c2c(O)cccc12	-2%	3%
CC1(C)Cc2cccc(OCC(=O)NCCc3ccc(S(N)(=O)=O)cc3)c2O1	-11%	-14%
CN(CC(=O)Nc1cccc(F)c1)C(=O)CSc1ccc(Br)cc1	-1%	-10%
COc1ccc(Cl)cc1C(=O)CSc1nnnn1C1CCCCC1	-16%	-23%
CCc1ccc2c(CN3CCc4ccccc43)cc(=O)oc2c1	-3%	-11%
c1ccc(-c2cn3c4c(sc3n2)CCCC4)cc1	-16%&-12%	-6%
CCOCC1(CCc2ccccc2)C(=O)NC(=S)NC1=O	-10%	-8%
COc1ccc(/C=C(\NC(=O)c2ccc(Cl)cc2)C(=O)NCCCN2CCOCC2)cc1OC	-1%	-16%
CCN(CC)CCCNC(=O)c1c(O)c2c([nH]c1=O)CCCC2	-14%	-7%
Cc1ccc(-c2[nH]ncc2CNCc2ccccc2)cc1	-22%	-26%
CNc1c(NS(=O)(=O)c2ccc(Br)cc2)c(=O)oc2ccccc12	-1%	-8%
Cc1cc(C)c(S(=O)(=O)N2C[C@H]3CON(C)[C@H]3C[C@H]2c2ccc(N3CCCCC3)cc2)c(C)c1	17%	10%
CC(C)(O)P(=O)(O)CCc1ccccc1	-10%	i
CCCOc1ccc(NC(=O)CC2C(=O)N(c3ccc(C)cc3)C(=O)N2C2CCCC2)cc1 (configuration not stated)	-10%	-24%
CC(C)C(=O)N1CCC(c2nc(-c3ccc(S(=O)(=O)N4CCN(C)CC4)cc3)no2)CC1	-7%	-26%
CCCNC(=O)C1(C)CCCN(Cc2ccc3c(c2)OCO3)C1 (configuration not stated)	-10%	10%
O=C(NCc1ccccc1F)c1cccc(S(=O)(=O)N2CCCCC2)c1	-12%	i
Cc1nnc(Nc2ccc3c(c2)OCO3)c2ccccc12	9%	-8%
CCOC(=O)c1nn(-c2ccc(F)cc2)cc1O	-6%	-6%
COc1ccc(N(C)S(=O)(=O)c2cccc(C(=O)N3CCN(c4ccccc4)CC3)c2)cc1	-8%	-29%
COc1cccc(C(=O)N/N=c2\sc3ccccc3n2C)c1	3%	-10%
O=C(NNC(=O)C1CCCN(S(=O)(=O)c2cccc(F)c2)C1)C1CC1 (configuration not stated)	-8%	i
CC(C)CC(=O)N1CCN(C(=O)c2ccc(F)cc2)CC1	-20%	i
CC(C)n1cc(C(=O)N2CCCC(N3CCN(c4cccc(Cl)c4)CC3)C2)cn1 (configuration not stated)	-15%	-1%
COc1ccc(Cl)cc1NC(=O)CN(C)C(=O)Cc1ccc2c(c1)CCC2	-15%	-9%
CC1CCCC(C)N1C(=O)COC(=O)/C=C/c1ccc(Br)o1 (configuration not stated)	0%	i
Cc1noc(C)c1COC(=O)c1ccc(-c2nc3ccccc3s2)s1	-8%	-7%
CC1Sc2ccc(S(=O)(=O)CCC(=O)N3CCN(c4cccc(Cl)c4)CC3)cc2NC1=O (configuration not stated)	0%[7.34 µM]	-1%[7.34 µM]
COc1ccc(CCNC(=O)c2ccc3c(c2)N=C(C)c2ccccc2S3)cc1OC	-19%	-18%
COc1ccc(C(C#N)c2ccc(Cl)nn2)cc1 (configuration not stated)	-3%	-1%
Cc1c(Br)c([N+](=O)[O-])nn1CC(=O)Nc1ccc(C(C)C)cc1	-21%	-29%
C/C(=N\NC(=O)c1cccc([N+](=O)[O-])c1)c1cccs1	-15%	-32%
COc1cccc(C(=O)NCCNC(=O)c2ccccn2)c1	6%	-6%
CC1CC(C)CN(C(=O)COc2cccnc2[N+](=O)[O-])C1 (configuration not stated)	4%	-13%
CSc1ccccc1-c1cnc(NC(C)=O)cn1	-10%	-3%

# Later entries:
SMILES	Vaccinia Venus	VACV mCherry inh
O=C1C=C(N2CCOCC2)c2cccc3cccc1c23	121%[activator]	-6%
COc1ccc(S(=O)(=O)N(CC(=O)NCCc2ccccc2)c2ccc(Cl)cc2)cc1	-9%	-5%
COc1ccccc1C(=O)NC(=O)CSc1nnc(C)s1	1%	i
Cc1ccc(-n2c(=S)[nH]c3c(oc4ccccc43)c2=O)cc1C	-10%	0%
Cc1cccnc1NC1(C(F)(F)F)N=C2SCCN2C1=O (configuration not stated)	-15%	i
CC(C)c1ccc(OCc2cc(=O)n3c(-c4ccccc4)csc3n2)cc1	-16%	-8%
COc1ccccc1N1CCN(C(=O)CNC(=O)c2cn(-c3ccccc3OC)c(=O)c3ccccc23)CC1	-5%	i
CC1=C(C(=O)Nc2ccc(C(=O)NCCC(C)C)cc2)SCCO1	-11%	i
CCN1C(=O)C(CC(=O)Nc2ccc(OC)cc2)N(CCCN2CCN(c3ccc(F)cc3)CC2)C1=S (configuration not stated)	?	?
CCN(CC)C(=O)Cn1cc(C(=O)C(=O)NCCc2c[nH]c3ccccc23)c2ccccc21	-8%[7.34 µM]	-3%[7.34 µM]
COc1ccc(CCn2c(C)cc(C(=O)CSc3nnnn3-c3ccccc3)c2C)cc1OC	-9%	i
O=C(/C=C/Nc1ccccc1C(=O)O)c1cccs1	-4%	-16%
COCCNC(=O)C1CC(=O)N(C2CCCC2)C1 (configuration not stated)	-8%	-15%
CCS(=O)(=O)N1CCN(S(=O)(=O)c2ccc(S(=O)(=O)NC3CC3)cc2)CC1	1%	-17%
Cc1cc(OCC(O)CN2CCN(CCO)CC2)ccc1C(C)C (configuration not stated)	-10%	/
CC1CCCC(C)N1C(=O)Cc1ccccc1 (configuration not stated)	-1%	-29%
CCCc1[nH]n(-c2ccc([N+](=O)[O-])cc2)c(=O)c1C=NCCc1c[nH]c2ccccc12	-7%	/

# Assay outcomes deposited in PubChem BioAssay by National Center for Advancing Translational Sciences (NCATS).
